gsp antagonist – antagonists of gsp mutant (McCune-Albright syndrome); Potency, µM (doses to about 76.9 µM), for inactives: top-dose activity change, negative = inhibition, most hits filed as inhibitors; hit rate 0.4% among 340,000; gsp-mutant cells, cAMP HTRF, 30 min; control for the full effect not named in the record; active = falling curve of any shape with a large fitted effect; inconclusive = falling curve, mostly with a smaller effect; inactive = flat or rising curve; cell line not stated here;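 further: intracellular cAMP measured with PDE inhibitor Ro 20-1724 present during compound exposure; potency means the concentration at half of the fitted maximal effect; on the % scale 0 is the no-effect control and ±100 the full control effect; nearly all actives have a fitted effect of over 65% in size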
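Cells, 2000/well, grown 16–24 h in DMEM 10% FBS with 0.5 mg/ml G418, then compounds plus […] (300 uM addition stock), 30 min at 37C. cAMP read by HTRF (cAMP-d2 and anti-cAMP antibody-K in lysis buffer) after 30 min RT.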
Sfp inh – inhibitors of Bacillus subtilis Sfp phosphopantetheinyl transferase; Q9F4F7; Biochemical Sfp PPTase activity, qHTS; Potency, µM, for inactives: max response, negative = inhibition, most hits filed as inhibitors; hit rate 3.5% among 310,000; active means well fitted inhibition curve with a large enough effect; inconclusive means small, poorly fitted or top-dose-only effect, or another doubt; inactive means no such curve, though single readings can be large or run the other way;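 further: the enzyme is Sfp with the accession as filed and its product quenches rhodamine fluorescence; potency means the concentration at half of the fitted maximal effect; 0% = enzyme reaction without inhibitor and -100% = no enzyme wells; top concentration of the series not given in the record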
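Compounds were incubated with enzyme (final 15 nM) for 15 min at room temperature before substrate addition started the reaction. Fluorescence at 525 nm excitation, 598 nm emission was recorded immediately and after 30 minutes.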
gsp agonist – activates gsp, the McCune-Albright syndrome mutation. gsp mutant cells, cAMP HTRF, 30 min; control for the full effect not named in the record. Potency, µM (highest dose often 76.9 µM), inactives show at the highest dose activation (cAMP increase), usual class: activators. hit rate 0.13% among 340,000; active = well fitted activation curve with a large enough effect; inconclusive = small, poorly fitted or top-dose-only effect, or another doubt; inactive = no such curve, though single readings can be large or run the other way; cell line not stated here;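 further: phosphodiesterase inhibitor Ro 20-1724 added with compounds to block cAMP breakdown; potency means the concentration at half of the fitted maximal effect; nearly all actives have a fitted effect of over 60% in size; about a fifth of the inactives were tested at one dose only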
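Cells in DMEM/10% FBS with G418 were pretreated with compounds in DMSO plus […] (300 uM stock) for 30 min at 37C. cAMP was measured by HTRF (cAMP-d2 plus anti-cAMP antibody-K) after 30 min at room temperature.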
ClpP mod – qHTS Assay for Activators of ClpP | ATP-dependent Clp protease proteolytic subunit (Bacillus subtilis (strain 168)), P80244 | purified B. subtilis ClpP, FRET peptide cleavage, 20 min | Potency, µM (top dose mostly 57.5 µM), inactives show at the top dose activity change, negative = active | hit rate 1.9% among 340,000 | AID 651965, 2013; active = well fitted falling curve with a large enough effect; inconclusive = small, poorly fitted or top-dose-only effect; inactive = no such curve, though single readings can be large or run the other way; further: potency means the concentration at half of the fitted maximal effect; the source files actives as falling curves though it sought activators and does not explain the sign; nearly all actives have a fitted effect of over 65% in size; many hits overshoot -100%
Target sequence (P80244 whole entry, looked up): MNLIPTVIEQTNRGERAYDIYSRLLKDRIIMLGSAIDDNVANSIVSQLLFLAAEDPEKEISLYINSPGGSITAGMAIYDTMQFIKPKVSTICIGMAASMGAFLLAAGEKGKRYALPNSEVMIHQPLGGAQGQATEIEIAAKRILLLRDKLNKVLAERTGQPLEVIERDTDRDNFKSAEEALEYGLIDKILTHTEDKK
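FRET quenching reversal measured ClpP activation: 10 microg/mL B. subtilis ClpP at pH 8 with the FRET-FV decapeptide, read at 430 nm after 320 nm excitation. The 20-min minus 0-min signal was scaled between DMSO/no-enzyme wells and ADEP (5.8 microM final).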
Menin-MLL FL inh – menin-MLL binding inhibition, fluorescein peptide; Fluorescence polarization, fluorescein-MLL peptide displacement from menin; FP activity change, % at 61.4 µM; 290,000 tested, under 10 active; inconclusive = falling polarisation curve, or a change in total fluorescence; inactive = total fluorescence flat and polarisation flat or rising; no compound was filed as active; the % refers to the polarisation; negative = inhibition;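 further: % of control where 0% means no effect; inhibitors lower the polarisation; unlabelled MLL peptide was the positive control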
TRPV1 PAM – enhances activation of the human vanilloid receptor TRPV1 | Q8NER1 | TRPV1-expressing cells, Fluo-8 calcium influx, capsaicin EC20 potentiation; host cell line not named in the record; control for the full effect not named in the record | potentiation, % at 8.33 µM | hit rate 0.02% among 320,000 | AID 540277; active means potentiation above 80%; inconclusive means 30% to 80%; inactive means below 30%; further: 0% is about no effect
Target sequence (Q8NER1 whole entry, looked up): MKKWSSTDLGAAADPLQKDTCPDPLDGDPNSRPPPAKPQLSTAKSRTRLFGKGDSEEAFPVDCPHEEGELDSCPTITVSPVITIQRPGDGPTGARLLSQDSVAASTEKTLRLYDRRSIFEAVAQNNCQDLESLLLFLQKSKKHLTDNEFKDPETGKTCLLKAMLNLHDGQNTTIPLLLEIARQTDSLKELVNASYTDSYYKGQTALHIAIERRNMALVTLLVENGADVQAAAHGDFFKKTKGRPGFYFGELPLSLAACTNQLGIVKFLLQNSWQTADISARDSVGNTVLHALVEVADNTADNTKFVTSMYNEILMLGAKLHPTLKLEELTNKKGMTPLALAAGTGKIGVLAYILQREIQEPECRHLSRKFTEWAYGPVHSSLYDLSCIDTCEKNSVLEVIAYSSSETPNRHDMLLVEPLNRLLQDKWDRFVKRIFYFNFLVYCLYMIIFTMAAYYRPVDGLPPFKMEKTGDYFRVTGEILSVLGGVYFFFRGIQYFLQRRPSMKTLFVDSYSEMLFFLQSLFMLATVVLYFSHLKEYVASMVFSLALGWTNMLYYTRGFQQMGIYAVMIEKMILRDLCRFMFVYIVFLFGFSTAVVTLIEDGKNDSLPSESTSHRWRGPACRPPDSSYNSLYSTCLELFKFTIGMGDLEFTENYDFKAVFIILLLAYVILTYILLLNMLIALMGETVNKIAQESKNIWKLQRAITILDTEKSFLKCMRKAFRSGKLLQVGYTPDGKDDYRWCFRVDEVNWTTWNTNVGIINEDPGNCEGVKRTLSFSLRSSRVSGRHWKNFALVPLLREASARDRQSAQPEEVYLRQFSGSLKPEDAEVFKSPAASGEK
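Fluo-8 calcium influx in TRPV1-expressing cells, kinetic read (ex 480/em 520 nm). Compound added and read 3 min for agonist activity, followed by capsaicin at EC20 final and 2 min further read for enhancement.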
TRPML1 blocker – inhibitors of human TRPML1 channel; Q9GZU1; TRPML1-inducible cells, Ca2+ dye fluorescence, FDSS; active compounds read low; inhibition of EC80 agonist-evoked calcium signal; activity change, negative = inhibition, % (concentration not given with the values); hit rate 0.02% among 390,000; in the data active means activity change below about -50%; inconclusive means about -30% to -50%; inactive means above about -30%;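 further: stimulus is agonist 54-4 at its EC80 concentration; on the % scale 0 is the no-effect control and ±100 the full control effect; the text of the record puts the active cut at -80%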
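Calcium fluorescence in TRPML1-DL cells induced overnight with Tet: a 110 s read after compound pin addition, then a 110 s antagonist read after challenge with 54-4 at 4 uM final (EC80).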
The depositor's hits bear a star; ? = inconclusive; nt = no result given; & = joins results of further samples; [ ] = remark or other dose.

Values run as follows: ClpP mod	Sfp inh	gsp agonist	TRPML1 blocker	gsp antagonist	Menin-MLL FL inh	TRPV1 PAM
Cc1cccc(N2CCN(C(=O)CCN3C(=S)NC(C)(C)CC3C)CC2)c1C (stereo not given)
→ -0.6%	20%	-6%[15.4 µM]	3	-8%	-11	-1
Cc1ccc(OCc2cc(C(=O)N3CCCC(C)C3)no2)cn1 (stereo not given)
→ -0.3%	nt	-73%[inhibitor]	-5	nt	nt	nt
Cn1c(-c2ccccc2[N+](=O)[O-])[n+](C)c2ccccc21
→ 1.9%	11%	-3%	-12	7%	-3.0	-2
CCOc1ccc(S(=O)(=O)NC(C)C(=O)NCc2ccccn2)cc1 (stereo not given)
→ nt	-11%	14%[15.4 µM]	45	3%	3.8	2
O=C(N[C@@H]1CCC(=O)N(CC[C@H](Sc2ccc(Br)cc2)c2ccccc2)CC1)OCc1ccccc1
→ -1.5%&-0.6%	nt	25%	-6	-22%	nt	17
CCN(CC)S(=O)(=O)c1ccc(NCc2ccccc2)nc1
→ ?	14%	-33%[inhibitor]	-11	-3%	-2.3	-16
O=C1CCCN1CCCN=c1c([N+](=O)[O-])nn(-c2ccc(Cl)cc2)n1O
→ nt	4%	-8%[15.4 µM]	18	3%	-1.4	-19
Clc1ccccc1OCc1nc(-c2ccc(Br)o2)no1
→ -0.3%	-19%	?	5	-2%	0.0	-1
COc1ccc(Br)cc1/C=N/NC(=O)C(c1ccncc1)N1CCOCC1 (stereo not given)
→ -2.1%	5%	3%[15.4 µM]	-7	10%	5.1	-18
COc1ccc(O)c(/C=N/NC(=O)CSc2nnc(C)n2-c2ccccc2)c1
→ -1.0%	25%	10%	20	-9%	0.5	19
O=S1(=O)CCN(Cc2ccccc2C(F)(F)F)CC1
→ 1.9%	22%	-13%	-15	8%	1.6	-4
CC(=O)NC(c1cccc([N+](=O)[O-])c1)c1c(OC(C)=O)ccc2ccccc12 (stereo not given)
→ 0.3%	nt	18%	13	-6%	nt	nt
CC(=O)OCCn1c(Br)nc2c1c(=O)[nH]c(=O)n2C
→ -3.6%	8%	7%	12	4%	1.3	3
CCOC(=O)c1cnc(-n2nc(C)cc2C)nc1Nc1ccc(OC)cc1
→ 0.3%	19%	-18%	-8	4%	1.3	3
Cc1ccccc1-c1nc(CN(Cc2c(C)nn(C)c2C)C2CC2)c(C)o1
→ nt	-21%	-6%[15.4 µM]	-7	-1%	3.2	-8
Cc1ccc(S(=O)(=O)N2CCCCC2)cc1C(=O)NCc1ccc(S(N)(=O)=O)cc1
→ -1.6%	nt	-5%	-9	8%	nt	nt
CCCCc1n[nH]c(=S)n1Cc1ccccc1
→ 0.2%	9%	12%	13	2%	0.6	-3
O=C(CSc1n[nH]c(=O)[nH]c1=O)c1cccc([N+](=O)[O-])c1
→ 3.4%	-5%	-20%	-29	-20%	1.7	13
Cc1ccc(S(=O)(=O)N2CCN(CC(=O)Nc3ccc([N+](=O)[O-])cc3)CC2)cc1C
→ -1.8%	13%	-27%	5	9%	-1.8	-4
Cc1ccc(S(=O)(=O)N(CC(=O)NCCSC2CCCCC2)c2ccccc2F)cc1
→ 3.9%	13%	-14%	14	11%	5.3	2
CCN(CC)C1CCN(C(=O)c2ccc(OC3CCN(C(=O)CCOC)CC3)cc2)C1 (stereo not given)
→ 0.7%	nt	-26%	-6	nt	nt	nt
O=C1NC(Cc2ccc(O)cc2)c2nc3cc(F)c(F)cc3c(=O)n2-c2cc3ccccc3cc21 (stereo not given)
→ -13%	nt	7%	-8	nt	nt	nt
CCOC(=O)c1cn(C2CC2)c2c(F)c(NCCCN(C)C)c(F)cc2c1=O
→ nt	nt	7%[15.4 µM]	10	-3%	nt	nt
C[C@H](CO)N1C[C@H](C)[C@@H](CN(C)Cc2ccncc2)Oc2c(NC(=O)c3ccncc3)cccc2C1=O
→ 0.2%	nt	nt	-17	-2%	nt	nt
Cc1ccc2cc(/C=N/Nc3ccc(C(=O)O)cc3)c(Cl)nc2c1
→ -1.0%	?	-17%	-3	-23%	?	10
O=C(c1ccc(Cn2cnnn2)cc1)N1CCCC(Nc2ccc(F)cc2)C1 (stereo not given)
→ -6.5%	-10%	0%[15.4 µM]	-6	-10%	-9.3	-3
CCS(=O)(=O)n1nc(-c2ccccc2)nc1SC
→ -13%	4%	-20%	47	3%	3.4	5
C=C(C)CNC(=S)N/N=C(\C)c1ccc(-n2ccnc2)cc1
→ 141%	6%	3%	4	0%	2.4	6
c1ccc(COc2ncnc3c2ncn3CCCN2CCN(c3ccccn3)CC2)cc1
→ -1.9%	nt	nt	1	-4%	nt	nt
CN1CCN(CC(O)COC(c2ccc(Cl)cc2)c2ccc(Cl)cc2)CC1 (stereo not given)
→ 1.1%	-16%	?	2	0%	4.9	10
O=C(Nc1ccccc1-c1ccccc1)c1cccc(C(F)(F)F)c1
→ -2.0%	13%	3%	-5	-15%	0.6	0
CCCC(C)c1nnc(NC(=O)C(=O)OCC)s1 (stereo not given)
→ nt	20µM*	?	7	5%	4.9	2
CCOc1ccc(C2/C(=C(/O)c3ccc4c(c3)CC(C)O4)C(=O)C(=O)N2CCCn2ccnc2)cc1 (stereo not given)
→ -4.7%	12%	?	-1	7%	-4.3	-27
COc1ccc(CCN(C(=O)c2cccc(F)c2)C2CC(=O)N(c3ccc(OC)cc3)C2=O)cc1 (stereo not given)
→ -1.0%	-1%	?	26	-13%	-2.8	5
Cc1ccc(-n2nnc3c(=O)n(CC(=O)N4CCC(C)CC4)cnc32)cc1
→ -1.7%	16%	-1%	-6	8%	1.0	-27
Cc1cc(C)cc(OCC(=O)N2CCc3ccccc3C2)c1
→ -2.7%	-1%	0%	8	0%	0.7	7
CN(C)/C=N/c1cc(=O)[nH]c(=O)n1CC1CC1
→ -1.3%	23%&12%	27%	-5	6%	-2.5&0.9	2
COc1cc(OC)cc(C(=O)N2CCN(Cc3ccccc3C(F)(F)F)CC2)c1
→ 0.4%	?	-9%	-8	-1%	-0.8	-6
CC(C)(C)NC(=O)COc1ccccc1C#N
→ nt	22%	-18%	2	4%	3.2	4
CCCCCSc1nc(N2CCOCC2)c2c(c1C#N)CC(C)(C)OC2
→ -0.7%	-9%	-16%	-9	6%	4.3	-1
C=CCN(CC=C)C(=O)c1ccc2nc(Cc3ccc(OC)c(OC)c3)oc2c1
→ nt	23%	-21%	-1	-21%	-3.9	-6
CC(=O)c1cn(CC(=O)Nc2c(C)cccc2C)c2ccccc12
→ -0.2%	-13%	-3%	21	-19%	-2.2	2
Cn1c(C2CC(=O)N(Cc3ccccc3)C2)nc2ccccc21 (stereo not given)
→ 1.0%	13%	-55%[inhibitor]	-1	7%	3.4	17
COC(=O)c1ccc(N2NC(=O)/C(=C/c3ccc(OC)c(OC)c3)C2=O)cc1
→ -2.3%	8%	-10%	-2	-4%	0.1	-4
NS(=O)(=O)c1ccc(N2CCN(C(=O)C3COc4ccccc4O3)CC2)nc1 (stereo not given)
→ ?	nt	-11%	3	1%	nt	-19
CCC(=O)Oc1ccc(-c2cnc3ccccc3n2)cc1
→ -20%	-18%	-10%	-11	7%	3.0	21
CCOc1ccc(OCCOc2cccc(C(F)(F)F)c2)cc1
→ 3.5%	6%	-47%[inhibitor]	-12	3%	-2.0	7
Cc1ccn(C(=O)c2cc3cc(Cl)ccc3oc2=O)n1
→ -15%	-11%	-53%[inhibitor]	12	-12%	2.6	-12
CN(c1ccccc1)S(=O)(=O)c1cccc(C(=O)OCC(=O)Nc2ccc3[nH]c(=O)[nH]c3c2)c1
→ -2.8%	nt	-6%	9	-1%	nt	5
CN1CCN(C(=O)c2ccc(COc3ccc(C(C)(C)C)cc3)o2)CC1
→ -1.0%	-1%	12%	-1	0%	4.1	-3

Additional entries follow.
Values run as follows: ClpP mod	Sfp inh	gsp agonist	TRPML1 blocker	gsp antagonist	Menin-MLL FL inh	TRPV1 PAM
CNC(=O)COC(=O)/C=C/c1c(C)nn(-c2ccccc2)c1C
→ -5.1%	13%	-11%	-5	5%	-1.0	-3
Cn1c(Cc2ccccc2)nnc1SCC(=O)NC1CCCC1
→ nt	9%	0%[15.4 µM]	7	5%	nt	-3
COCCn1c(C)cc(C(=O)CSc2nc3ccccc3c(=O)n2Cc2ccco2)c1C
→ -7.2%	?	19%	5	-14%	6.5	20
CCOC(=O)c1sc2nc3c(cc2c1N)COC(C)(CC)C3 (stereo not given)
→ -9.9%	3%	-20%	4	-17%	4.7	-25
COC(=O)N/N=C/c1ccc([N+](=O)[O-])o1
→ -11%	19%	-30%	-14	1%	-1.1	-1
O=c1[nH][nH]cc1C=Nc1ccccc1Cl
→ 1.7%	12%	-10%	-10	-2%	-0.6	12
COc1nsnc1NS(=O)(=O)c1ccc(NC(=S)NC(=O)c2ccncc2)cc1
→ -0.3%	79µM*	?	-8	-3%	0.1	15
O=C(NC1C=CS(=O)(=O)C1)c1sc2ccccc2c1Cl (stereo not given)
→ -3.7%	-3%	10%	20	-15%	0.9	1
C#CCN(C[C@@H]1[C@@H](OC(=O)NCC2CCCCC2)[C@@H](OC(=O)NCC2CCCCC2)CN(C(=O)OC(C)C)N1C(=O)OC(C)C)S(=O)(=O)c1ccc(C)cc1
→ -2.0%	nt	-38%	3	nt	nt	nt
O=C(/C=C/c1ccc(F)cc1)Nc1cc(S(=O)(=O)N2CCOCC2)ccc1N1CCCC1
→ 0.2%	0%	16%	-8	-6%	-0.9	-15
Cc1ccccc1OCC(=O)N1CCC2(CC1)CC(=O)c1ccccc1O2
→ 28µM*	nt	-11%	-6	-16%	nt	-3
O=C(CSc1nc2c(cnn2-c2ccc(F)cc2)c(=O)[nH]1)Nc1nccs1
→ -10%	14%	?	24	6%	7.4	5
Cc1cc(C)n2nc(C(=O)N(C)c3c(N)n(Cc4ccccc4)c(=O)[nH]c3=O)nc2n1
→ -5.2%	nt	-5%[15.4 µM]	3	11%	nt	4
Cc1ccc(CNC(=O)[C@H](Cc2ccccc2)NC(=O)c2ccco2)cc1
→ 2.3%	nt	-34%[inhibitor]	1	-1%	nt	-6

Screens deposited in PubChem BioAssay by National Center for Advancing Translational Sciences (NCATS).

Compounds as they come; any-hit rate near 4.9%.
